# Screens from PubChem.
# S aureus helic: blocks Staphylococcus aureus DNA helicase | purified S. aureus helicase, fluorescence unwinding assay; about half of the hits fall short of the stated cut | inhibition, %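 (tested at about 80 µM)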 | 0.05% of 120,000 active;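 active = both duplicates at 50% or more, or one of them with a favoured structure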;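 also: 0% = mean of negative control wells and 100% = mean of positive control wells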
# MgrA DNA FP: modulators of Staphylococcus aureus MgrA DNA binding | fluorescence polarization | inhibition, %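 (about 10 µg/mL by stock and volumes)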 | 0.13% of 84,000 active | AID 602314;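 active = above 50% in either of two replicates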;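 also: 0% = protein plus DNA without compound and 100% = DNA alone without protein; higher means less MgrA bound to DNA so lower polarization; one replicate is shown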
# Active calls of the source: *; / = no result given; & = joins results of further samples. The list is partial; rates above refer to the full screens.
S aureus helic,MgrA DNA FP,SMILES
/,3.5,CCOC(=O)c1nn(-c2ccc(C)cc2)cc1C#N
15,-2.3,CCN(C(=O)Cn1nc(C)n2c(cc3cc(C)ccc32)c1=O)c1ccccc1
10,0.5,Cn1c(=O)n(C)c2cc(-c3nc4sc5c(c4c(=O)[nH]3)CCC5)ccc21
/,0.1,CCOc1ccc(N=Cc2ccccc2O)cc1
/,-0.8,Cc1cc(C)n(CCS(=O)(=O)c2ccc(Cl)cc2)n1
6,0.1,CCCn1c(CCCNC(=O)c2ccc(OC)c(OC)c2)nc2ccccc21
-4,1.1,CC(=O)ONC(=Nc1ccccc1C)c1nonc1N
8,3.0,COc1ccc2c(c1C)CCC1=C(C)C(=O)CCC12C (stereo not drawn)
7,-0.5,CCn1ncc(C2=NOC(C(=O)NC3CCCCC3)C2)c1C (stereo not drawn)
9,/,CC1CC(C)CN(CCCNC(=O)Cn2ncn3cccc3c2=O)C1 (stereo not drawn)
2,1.0,COc1ccc(C(=O)/C=C2/NCC3c4ccccc4CCN3C2=O)cc1 (stereo not drawn)
-1,-5.3,O=C(Nc1cccc(F)c1)c1cccc(-c2cc3ccccc3oc2=O)c1
-26,/,COC(=O)C1=C(N)Oc2cc(C)[nH]c(=O)c2C1c1ccccc1OC (stereo not drawn)
14,3.0,CCOC(=O)N1CCC(NC(=O)Cn2ncc3c(=O)oc4ccc(C)cc4c32)CC1
-4,/,CN(C)C(=S)SCC(=O)Nc1cccnc1Cl
/,-0.5,O=C(CSc1ncccn1)Nc1ccc(Br)cc1
-22,/,COc1cccc2cc(-c3nnc(Nc4ccccc4F)s3)c(=O)oc12
-3,0.2,Cc1ccc(-c2nc3ccccc3[nH]2)cc1N=Cc1cc(Br)ccc1O
-14,/,Cc1ccc2nc(CC#N)[nH]c2c1
-73,1.7,CC(=O)Oc1ccc2cc(-c3nc(-c4ccccc4)c(C)s3)c(=O)oc2c1
/,2.5,CC(C)c1cc(O)c(-c2ccccc2)c(=O)n1-c1ccc(Cl)cc1
/,3.4,COc1ccc2nc(N)sc2n1
/,1.5,COc1ccc(-c2noc(-c3cccs3)n2)cc1OC1CCCC1
/,0.3,O=S(=O)(NCc1ccc(F)cc1F)c1ccc(-c2ccon2)s1
-4,2.0,O=C1Nc2cc(C(=O)N3CCC(Cc4ccccc4)CC3)ccc2Sc2ccccc21
/,0.2,O=[N+]([O-])c1cccnc1NCc1cccnc1
-11,2.5,CCC(OC(=O)CC1Sc2ccccc2NC1=O)C(=O)NC1CCCC1 (stereo not drawn)
6,-1.8,CCC(C)NC(=O)C1CCCN(S(=O)(=O)c2cccc3cccnc23)C1 (stereo not drawn)
/,2.7&4.7,Clc1cccc(Cl)c1NC1=NCCN1
5,-4.2,CC1CCN(c2ncccc2C(=O)NC2CCCCC2)CC1

S aureus helic,MgrA DNA FP,SMILES
2,-3.8,C=C(C)Cn1nc(C)c(-c2cc(C(=O)O)[nH]n2)c1C
-2,/,O=C1NC(Cc2ccc(O)cc2)C(=O)N1C12CC3CC(CC(C3)C1)C2 (stereo not drawn)
0,5.2,O=C(O)c1ccc(N=NN2CCCCC2)cc1
-11,/,COc1ccc(C(=O)Nc2nccs2)cc1S(=O)(=O)N(C)Cc1ccccc1
/,4.2,CCOc1cc(C(F)(F)F)cnc1C(=N)N
/,-0.1,O=c1[nH][nH]c(=O)n1CCCc1cc2cccc3ccc4cccc1c4c32
6,1.9,CCCc1[nH]n(-c2nc3ccccc3s2)c(=O)c1C(C)=Nc1ccc(C(=O)OCC)cc1
7,0.3,O=C1C2CC=CCC2C(=O)N1CNc1ccccc1 (stereo not drawn)
-4,1.6,Cc1c(C(=O)NC(C)C)oc2ccccc12
11,0.4,COc1cc2cc(C)nc(Cc3cccc4ccccc34)c2cc1OC
/,-0.8,CC(=O)Nc1ccc(N=Cc2nc(-c3ccc(Br)cc3)oc2O)cc1
5,/,NS(=O)(=O)c1ccc(CCN2C(=O)CSC2=S)cc1
1,2.5,COc1cc(=O)n(C)c2c(OCC(O)C(C)(C)O)cccc12 (stereo not drawn)
-12,/,O=C(NCCc1c[nH]c2ccccc12)c1cc(CN2CCCC2)on1
4,/,COCC(C)NC(=S)NC1CC(C)(C)NC(C)(C)C1 (stereo not drawn)
10,-1.9,COc1ccc(N(C(C)=O)S(=O)(=O)c2cc(OC)ccc2OC)cc1
/,2.5,O=c1nc(N2CCOCC2)nc(Nc2cccc(Br)c2)[nH]1
9,/,Cc1noc(-c2ccc(Cl)cc2)c1NC(=O)NN1CCCCC1
-18,/,c1csc(-c2nnc(N3CCOCC3)c3ccccc23)c1
-23,3.3,Cc1cc(Nc2nc3ccccc3nc2Cl)n(-c2ccccc2)n1
5,4.2,Cc1ccccc1NCC(=O)N1CCc2ccccc21
11,-0.1,COc1cccc(NC(=O)c2ccnc(C(C)(C)C)c2)c1
13,0.9,OC(CNc1nc2ccccc2s1)c1ccccc1 (stereo not drawn)
10,/,C=CCc1cc(C(=O)N2CCCC2)ccc1O
13,/,Cc1ccc(N2COc3ccc(C(C)(C)C)cc3C2)cc1
4,5.9,COCC(=O)/C=C1\Sc2ccccc2N1C
6,2.5,COc1ccc(NC(=O)CSCC(=O)O)cc1
18,/,O=C(NCC1(c2ccccc2)CCOCC1)c1ccco1
3,1.5,O=S(=O)(CC(O)COc1ccccc1)c1ccccn1 (stereo not drawn)
8,/,CN(Cc1cccc(Cl)c1Cl)CC(O)COCc1ccccc1 (stereo not drawn)

# Structures above that have a cyano group, in the order listed:
S aureus helic,MgrA DNA FP,SMILES
/,3.5,CCOC(=O)c1nn(-c2ccc(C)cc2)cc1C#N
-14,/,Cc1ccc2nc(CC#N)[nH]c2c1

# (further entries)
S aureus helic,MgrA DNA FP,SMILES
/,-0.3,Nc1c(-c2nnc(SCc3ccc(Cl)cc3)o2)cnn1-c1ccccc1
-7,/,O=S(=O)(c1ccc(-n2cnnn2)cc1)N1CCCCCCC1
6,/,NC(=O)c1c(NC(=O)CN(CCO)c2ccccc2)sc2c1CCC2
0,0.9,O=C(N1CCOCC1)N1CCOCC1
-19,/,Cc1occc1-c1nnc2n1N=C(c1ccc(-c3cc(Cl)ccc3Cl)o1)CS2
17,/,COc1cc(C(=O)N(Cc2ccco2)c2ccc(O)cc2)cc(OC)c1OC
9,0.8,CS(=O)(=O)N1CCC(C(=O)N2CCCCC2)CC1
-9,/,COC(=O)CC1C(=O)NCCN1C(=O)CSc1nnc(-c2ccccc2)o1 (stereo not drawn)
/,-3.2,Cc1ccc(C=Nc2ccc(C)cc2)cc1
9,/,CCCCNc1ncnc2nc[nH]c12
25,-0.1,COc1ccc(C(=O)/C=C\Nc2ccc(S(=O)(=O)N=C(N)N)cc2)cc1OC
14,-0.7,CNC(=O)c1cc(-c2ccc(OC)cc2)nc2ccccc12
-1,/,Cc1ccccc1NC(=O)CC1SC(N2CCCCC2)=NC1=O (stereo not drawn)
12,/,CN(C)S(=O)(=O)NCc1ccc2[nH]c3c(c2c1)CCCC3
-11,/,O=C(Nc1ccc(F)cc1F)c1ccccc1C(F)(F)F
14,/,O=C(CSc1ccc2c(c1)OCCO2)NC(=O)NCc1ccco1
19,/,CCc1nn(CC(=O)NC2CCN(Cc3ccccc3)CC2)c(=O)c2cc3sccc3n12
16,/,CCn1c(=O)c2c3c(sc2n2c(=S)[nH]nc12)CCCC3
/,17,O=C(O)C1=C(C(=O)Nc2ccccc2)SCCS1
-17,/,NS(=O)(=O)c1ccc(CCNCc2cccs2)cc1
5,-0.8,O=C(NC1CCCCC1)C(c1ccco1)N(Cc1cccs1)C(=O)C(F)(F)F (stereo not drawn)
-2,/,Cc1ccc(Cn2c(=O)c3ccccc3n3c(SCc4nc5ccc(Cl)cc5n4CCO)nnc23)cc1
-39,/,Cc1c(C(=O)NCCCN2CCOCC2)cc(C(C)(C)C)n1-c1ccccc1
-1,/,CCc1nn(CCCC(=O)N2CCc3ccccc3C2)c(=O)c2cc3occc3n12
-7,-0.8,N#Cc1c(C(F)(F)F)cc(-c2cccs2)nc1SCC(=O)c1ccccc1
0,/,O=C(CCCc1nc2ccccc2s1)OCc1nnc(-c2cccs2)o1
-14,/,Cc1ccc(OCCNC(=O)Cc2ccsc2)cc1
-13,/,CCSc1nn2c(=O)c(C(C)(C)C)nnc2s1
10,/,COc1ccc(-c2noc(COC(=O)CSc3nc4ccccc4o3)n2)c(OC)c1
9,/,CN1C(=O)c2ccccc2Sc2ccc(NC(=O)NCc3ccco3)cc21

# Already shown: 6 of the compounds above.
S aureus helic,MgrA DNA FP,SMILES
/,3.5,CCOC(=O)c1nn(-c2ccc(C)cc2)cc1C#N
15,-2.3,CCN(C(=O)Cn1nc(C)n2c(cc3cc(C)ccc32)c1=O)c1ccccc1
10,0.5,Cn1c(=O)n(C)c2cc(-c3nc4sc5c(c4c(=O)[nH]3)CCC5)ccc21
/,0.1,CCOc1ccc(N=Cc2ccccc2O)cc1
/,-0.8,Cc1cc(C)n(CCS(=O)(=O)c2ccc(Cl)cc2)n1
6,0.1,CCCn1c(CCCNC(=O)c2ccc(OC)c(OC)c2)nc2ccccc21

# Carrying on.
S aureus helic,MgrA DNA FP,SMILES
9,-0.7,CCOc1ccc(NC(=O)C(C#N)=C2CCCCCC2)cc1
0,1.1,Cc1ccc(SC(C)C(=O)Nc2ncn[nH]2)cc1 (stereo not drawn)
8,2.8,CC1=NN(c2ccccc2)C(=O)C1C(=O)c1ccc(F)cc1 (stereo not drawn)
3,3.0,COc1cccc(-c2nc(SCN3C(=O)c4ccccc4C3=O)[nH]c(=O)c2C#N)c1
-1,-3.1,O=C(COc1ccc(Oc2ccccc2)cc1)NCc1cn2ccccc2n1
25,/,O=C(N/N=C/c1cccc(Br)c1)c1ccccc1O
/,-0.7,Cc1c(C(=S)Nc2ccccc2)sc2ccccc12
-1,/,COc1ccc(OCCCC(=O)N2CCN(S(=O)(=O)c3ccccc3C(F)(F)F)CC2)cc1
-15,/,C=CCn1c(=O)/c(=C/c2ccc3c(c2)OCO3)s/c1=C(/C#N)C(N)=O
/,-2.6,Cc1ccc(CNS(=O)(=O)c2ccccc2)n1C
12,/,COC(=O)c1cc2sc(Cl)cc2n1Cc1nc(-c2ccc(OC)c(OC)c2)oc1C
-6,-1.8,CCOC(=O)/C(C#N)=C1\CCCCCN1
3,38,CCCN1CCCc2cc(CN)ccc21
-28,/,CCC1Sc2ccc(S(=O)(=O)CCC(=O)N3CCCc4ccccc43)cc2NC1=O (stereo not drawn)
11,/,CC1(C)C(c2ccco2)=[N+]([O-])C(C)(C)N1O
-18,/,Cn1nc(-c2ccccc2F)c2cc(C(=O)Nc3ccc(S(N)(=O)=O)cc3)sc21
-1,0.4,Oc1ccc(/C=C2/NC(=S)Nc3nc(Nc4ccccc4)sc32)cc1
/,0.8,O=C1NC(=S)N/C1=C/c1ccc(-c2c(Br)cc([N+](=O)[O-])cc2Br)o1
1,1.0,C=CCn1c2ccc(Br)cc2c2nc3ccccc3nc21
-21,/,Cc1cc(C)nc(N/N=C/c2c(O)n(C)c(=O)n(C)c2=O)n1
8,4.3,O=C(Cn1nc(Cc2cccnc2)c2ccccc2c1=O)NCCc1ccc(Cl)cc1
12,0.2,O=C(O)c1ccc2nc(-c3ccccc3)sc2c1
/,-2.6,N#CCCN(CC1CCCO1)S(=O)(=O)c1ccc(Br)cc1 (stereo not drawn)
/,1.9,CC(C)(C)S(=O)(=O)/C(C#N)=C/c1ccc(F)cc1F
-14,-1.8,CC(Oc1ccccc1)C(=O)Nc1ccc(-c2nnc(-c3ccccc3)o2)cc1 (stereo not drawn)
-15,/,Cc1ccc(-c2c3c(nc4sc(C(N)=O)c(N)c24)CCCC3)o1
26,/,Cc1cccc(NC(=O)/C=N/OC(=O)Nc2ccccc2)c1
-9,/,Cc1cc(C)nc(NNC(=O)NC2CCCCC2)n1
10,/,CCOC(=O)CC1=CSC(NC)N1c1c(C)cc(C)cc1C (stereo not drawn)
5,/,Cc1nc2c3c(-c4ccccc4)nc(N4CCCCC4)nc3nn2c(C)c1CCC(=O)O

# Record cards, as listed above:
# Cc1occc1-c1nnc2n1N=C(c1ccc(-c3cc(Cl)ccc3Cl)o1)CS2 is listed with S aureus helic = -19; MgrA DNA FP = /
# N#Cc1c(C(F)(F)F)cc(-c2cccs2)nc1SCC(=O)c1ccccc1 is listed with S aureus helic = -7; MgrA DNA FP = -0.8

# Of the compounds above, 6 have a COOH group.
S aureus helic,MgrA DNA FP,SMILES
2,-3.8,C=C(C)Cn1nc(C)c(-c2cc(C(=O)O)[nH]n2)c1C
0,5.2,O=C(O)c1ccc(N=NN2CCCCC2)cc1
6,2.5,COc1ccc(NC(=O)CSCC(=O)O)cc1
/,17,O=C(O)C1=C(C(=O)Nc2ccccc2)SCCS1
12,0.2,O=C(O)c1ccc2nc(-c3ccccc3)sc2c1
5,/,Cc1nc2c3c(-c4ccccc4)nc(N4CCCCC4)nc3nn2c(C)c1CCC(=O)O

# Additional structures.
S aureus helic,MgrA DNA FP,SMILES
9,0.4,Cc1ccc(/C=N/n2cnc3sc4c(c3c2=O)CCCC4)o1
-35,/,Cc1c(Cl)ccc2c(=O)c(C(=O)O)c[nH]c12
14,-1.2,Cc1ccc(CNC(=O)CSc2nc(NC3CCCCC3)c3ccccc3n2)cc1
8,/,Cn1c(=O)c2c(-c3ccccc3)n(C3CCCCC3)cc2n(C)c1=O
9,/,CCOC(=O)N1CCC(Nc2nc(Nc3ccccc3)nc(OC)n2)CC1
16,/,CC(C)C(=O)Nc1nc(NC(=O)C(C)C)nc(-c2ccccc2C(F)(F)F)n1
/,-0.3,O=C(O)CCC(=O)OC[C@@H](NC(=O)C(Cl)Cl)[C@H](O)c1ccc([N+](=O)[O-])cc1
/,1.6,Clc1ccc(C2Nc3ccccc3O2)cc1 (stereo not drawn)
4,/,Cc1noc(C)c1COc1ccc(C(=O)Nc2ccc(F)c(Cl)c2)cc1
-11,/,COC(=O)/C=C/c1ccc(OC(=O)c2ccncc2)cc1
/,-0.3,COc1ccc(-c2[nH]nc(SC)c2C#N)cc1
14,-0.6,O=P(CCN1CCOCC1)(c1ccccc1)c1ccccc1
